Compound activity as filed in PubChem BioAssay.
TRPML1 ag – agonists of human TRPML1 channel. Q9GZU1. TRPML1-expressing cells, Ca2+ dye fluorescence, FDSS; host cell line not named in the record; reference of the full effect not given here. activation, % (test concentration not listed). 410,000 tested, 0.12% active. AID 624414; in the data active = activation above about 50%; inconclusive = about 30% to 50%; inactive = below about 30%; also: 0% is about no effect; the text of the record puts the active cut at 80%
Target sequence (Q9GZU1 whole entry, looked up): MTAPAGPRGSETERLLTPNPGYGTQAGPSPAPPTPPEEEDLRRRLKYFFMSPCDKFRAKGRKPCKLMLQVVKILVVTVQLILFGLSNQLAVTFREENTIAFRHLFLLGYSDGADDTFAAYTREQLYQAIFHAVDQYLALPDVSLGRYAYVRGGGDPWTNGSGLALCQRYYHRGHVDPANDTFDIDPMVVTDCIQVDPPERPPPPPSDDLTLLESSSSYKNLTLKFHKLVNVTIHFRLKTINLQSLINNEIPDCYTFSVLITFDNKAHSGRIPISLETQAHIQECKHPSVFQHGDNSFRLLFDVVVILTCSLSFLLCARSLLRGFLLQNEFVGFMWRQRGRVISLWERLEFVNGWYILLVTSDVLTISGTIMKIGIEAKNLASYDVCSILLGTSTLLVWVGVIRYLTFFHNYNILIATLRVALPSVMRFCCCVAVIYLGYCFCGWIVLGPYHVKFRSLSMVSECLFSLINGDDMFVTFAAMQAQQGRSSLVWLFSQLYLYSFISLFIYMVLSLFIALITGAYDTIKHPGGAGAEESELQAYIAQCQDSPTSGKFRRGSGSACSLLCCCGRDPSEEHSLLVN
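Agonist activity was taken from a 110 s kinetic Ca2+ dye read on the FDSS after pinning compounds onto TRPML1-DL cells. The cells were seeded at 1,500/well with Tet inducer, incubated about 16 h, then dye-loaded at room temperature.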
Menin-MLL FL inh – inhibitors of human menin-MLL interaction, wild-type MLL peptide; Fluorescence polarization, fluorescein-MLL peptide displacement from menin; FP activity change, % at 61.4 µM; AID 1766; 290,000 tested, under 10 active; inconclusive = falling polarisation curve, or a change in total fluorescence; inactive = total fluorescence flat and polarisation flat or rising; no compound was filed as active; the % refers to the polarisation; negative = inhibition;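 also: % of control where 0% means no effect; inhibitors lower the polarisation; unlabelled MLL peptide was the positive control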
TRPML1 inh – human mucolipin-1 channel inhibition. Q9GZU1. TRPML1-inducible cells, Ca2+ dye fluorescence, FDSS; stronger effect = lower value; inhibition of EC80 agonist-evoked calcium signal. activity change, negative = inhibition, % (concentration not given with the values). 390,000 tested, 0.02% active; in the data active means activity change below about -50%; inconclusive means about -30% to -50%; inactive means above about -30%;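 also: stimulus is agonist 54-4 at its EC80 concentration; % is scaled to controls: 0 for no effect and ±100 for the full control effect; compound concentration not given in the record; the text of the record puts the active cut at -80%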
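TRPML1-DL cells, Tet-induced overnight (~16 h, 37 °C) at 1,500 cells/well, were loaded with Ca8 no-wash dye plus quencher for 45-90 min at room temperature. Compounds were pinned during FDSS kinetic reading; agonist 54-4 at EC80 (4 uM final) then added.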
gsp ag – agonists of gsp mutant (McCune-Albright syndrome); gsp mutant cells, cAMP HTRF, 30 min; control for the full effect not named in the record; Potency, µM (titrated, usually from 76.9 µM), inactives show top-dose activation (cAMP increase), usual class: activators; 340,000 tested, 0.13% active; AID 624287; active = well fitted activation curve with a large enough effect; inconclusive = small, poorly fitted or top-dose-only effect, or another doubt; inactive = no such curve, though single readings can be large or run the other way; cell line not stated here;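 also: phosphodiesterase inhibitor Ro 20-1724 added with compounds to block cAMP breakdown; potency is read from the fitted curve at half-maximal effect; nearly all actives have a fitted effect of over 60% in size; about a fifth of the inactives were tested at one dose only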
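Cells in DMEM/10% FBS with G418 were pretreated with compounds in DMSO plus […] (300 uM stock) for 30 min at 37C. cAMP was measured by HTRF (cAMP-d2 plus anti-cAMP antibody-K) after 30 min at room temperature.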
gsp antagonist – antagonists of gsp mutant (McCune-Albright syndrome) | gsp-mutant cells, cAMP HTRF, 30 min; control for the full effect not named in the record | Potency, µM (top dose mostly 76.9 µM), for the others: at the top dose activity change, negative = inhibition, usual class: inhibitors | 340,000 tested, 0.4% active | AID 624288; active = falling curve of any shape with a large fitted effect; inconclusive = falling curve, mostly with a smaller effect; inactive = flat or rising curve; cell line not stated here;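 also: intracellular cAMP measured with PDE inhibitor Ro 20-1724 present during compound exposure; potency is read from the fitted curve at half-maximal effect; % is scaled to controls: 0 for no effect and ±100 for the full control effect; nearly all actives have a fitted effect of over 65% in size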
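HTRF cAMP read-out (cAMP-d2 plus anti-cAMP antibody-K in lysis buffer, 30 min RT). Before lysis, cells are exposed to compounds with […] for 30 min at 37C in DPBS containing Ca/Mg, BSA and Tween 20.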
ClpP mod – qHTS Assay for Activators of ClpP. ATP-dependent Clp protease proteolytic subunit (Bacillus subtilis (strain 168)), P80244. purified B. subtilis ClpP, FRET peptide cleavage, 20 min. 340,000 tested, 1.9% active. Potency, µM (highest dose often 57.5 µM), for the others: at the top dose activity change, negative = active; active = well fitted falling curve with a large enough effect; inconclusive = small, poorly fitted or top-dose-only effect; inactive = no such curve, though single readings can be large or run the other way; also: potency is read from the fitted curve at half-maximal effect; the source files actives as falling curves though it sought activators and does not explain the sign; nearly all actives have a fitted effect of over 65% in size; many hits overshoot -100%
Target sequence (P80244 whole entry, looked up): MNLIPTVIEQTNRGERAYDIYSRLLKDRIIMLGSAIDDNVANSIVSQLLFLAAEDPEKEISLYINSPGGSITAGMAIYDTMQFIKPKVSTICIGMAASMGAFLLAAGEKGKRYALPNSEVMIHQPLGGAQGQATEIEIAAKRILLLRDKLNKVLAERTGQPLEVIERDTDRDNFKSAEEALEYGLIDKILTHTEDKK
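Buffer: 100 mM Tris/HCl pH8, 100 mM KCl, 0.05% low protease BSA, 2.5% glycerol, 0.01% Tween-20. ClpP 10 microg/mL final; 20 min RT; delta FRET normalized to ADEP and DMSO controls.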
Active calls of the source: *; ? = inconclusive; . = not tested or not shown; & = joins results of further samples; [ ] = dose if it differs, or a comment.

Under each structure: Menin-MLL FL inh	ClpP mod	TRPML1 inh	gsp ag	gsp antagonist	TRPML1 ag
Cc1ccc2[nH]c(O)c(N=NC(=O)c3ccc(NS(=O)(=O)c4cccs4)cc3)c2c1
→ -1.8	2.4%	5	-145%[inhibitor]	-33%	0.7
CC(C)c1ccc(NC(=O)NCc2ccc3c(c2)OCO3)cc1
→ 0.4	-2.6%	-11	2%	4%	0.1
CCOC(=O)Cn1nnnc1C(CC)N(Cc1cc2ccc(C)cc2[nH]c1=O)C1CCCC1 (configuration not stated)
→ 1.8	-0.4%	-2	?	-15%	-0.8
CCCCn1c(=O)c2oc3ccccc3c2n(Cc2ccc(C)cc2)c1=O
→ .	-0.2%	-9	.	.	0.2
O=C(COc1ccc2ccccc2c1)N1CCN(c2ccccc2)CC1
→ .	-4.7%	-5	3%[15.4 µM]	7%	1.0
CCOc1ccc(-c2nnc(SCC(=O)NCCC(C)C)nc2-c2ccc(OCC)c(OC)c2)cc1OC
→ .	16µM*	48	.	.	1.7
COc1ccccc1N1CCN(C(=O)Cn2ncc3ccsc3c2=O)CC1
→ .	0.5%	-2	.	.	1.2
O=C(Nc1ccc(S(=O)(=O)N2CCOCC2)cc1)c1ccc(CN2CCc3ccccc3C2)cc1
→ 8.5	-18%	-2	-8%	-25%	0.5
CCOC(=O)N1CCC(NC(=O)c2ccc(CS(=O)(=O)c3c(Cl)cccc3Cl)o2)CC1
→ 2.0	2.2%	-7	27%	-8%	1.4
O=C(C1CCCCN1S(=O)(=O)c1ccccc1)N1CCN(C(c2ccccc2)c2ccccc2)CC1 (configuration not stated)
→ 6.0	-1.1%	20	18%	-8%	1.3
S=C(NCCCNC(=S)Nc1ccccc1)Nc1ccccc1
→ 4.7	1.3%	29	11%	-20%	0.8
COc1ccc(CN(C)C(=O)c2ccc(COc3ccccc3)cc2)c(OC)c1
→ 2.8	.	-13	-9%	-10%	0.8
COc1ccc(-c2nc(C#N)c(N3CCN(C(=O)c4ccco4)CC3)o2)cc1OC
→ .	-22%	28	-31%	-5%	0.4
Cc1cccc(NC(=O)CCNS(=O)(=O)c2cccc3nonc23)c1
→ 0.4	0.1%	11&9	-3%	4%	0.4&0.1
CCC(C)Oc1cc(-c2ccnc(Nc3cccc(Cl)c3)n2)ccn1 (configuration not stated)
→ -0.4	-5.2%	-4	-1%	0%	-0.1
CC(=O)OC(C(=O)NCCc1ccccc1)c1cccnc1 (configuration not stated)
→ 0.6	-2.1%	-4	14%	3%	0.4
CC1CCc2c(sc3ncnc(NCCN4CCOCC4)c23)C1 (configuration not stated)
→ 0.6	-0.6%	-13	?	2%	-1.0
Cc1c(/C=N/NC(=O)c2cccnc2)cc(C#N)n1C
→ 0.4	.	-1	-6%[15.4 µM]	12%	0.2
O=C(NCc1ccc(F)cc1)C(=O)c1cn(CC(=O)N2CCCC2)c2ccccc12
→ .	0.2%	21	?	-21%	1.5
Cn1c(C(O)c2ccc(Br)cc2)nc(Cl)c1Cl (configuration not stated)
→ 0.3	.	8	-26%	-6%	1.1
C[N+]12CCC(CC1)C(OC(=O)C(O)(c1ccccc1)c1ccccc1)C2 (configuration not stated)
→ 5.5&-0.3	0.8%	13	.	3%	-0.7
CCCC(=O)Nc1ccccc1NC(=O)C1CCCCC1
→ 1.4	-0.2%	7	-34%[inhibitor]	-2%	-0.5
CC1c2ccccc2-c2ccccc2N1C (configuration not stated)
→ .	1.7%	2	2%[15.4 µM]	-10%	-0.7
COc1ccc(OC)c(C(=O)Cn2c3[n+](c4ccc(C(F)(F)F)cc42)CCCCC3)c1
→ 0.4	.	38	19%[15.4 µM]	19%	1.0
COc1ccc(S(=O)(=O)N2c3ccccc3OCC2c2ccccc2)cc1 (configuration not stated)
→ 3.4	-2.0%	0	5%	-8%	-0.3
COc1ccc(CNC(=O)CCC(=O)N2CC3CCCN3c3ccccc32)c(OC)c1 (configuration not stated)
→ .	-2.4%	-6	.	.	-0.3
C/C(=N\NC(=O)CN(c1ccccc1)S(=O)(=O)c1ccccc1[N+](=O)[O-])C(C)(C)C
→ -0.6	-15%	2	0%	-15%	2.1
COc1ccc(S(=O)(=O)N(CCCN2CCCC2=O)Cc2cc3c(C)cc(C)cc3[nH]c2=O)cc1
→ -1.1	-12%	15	0%	-16%	0.0
COc1ccc(/C(C)=N/NC(=O)c2ccc3nc[nH]c3c2)cc1
→ .	-0.1%	-1	17%	4%	-0.4
Cc1ccc(-c2nnc(N3CCN(c4ccccn4)CC3)c3ccccc23)cc1
→ -0.8	1.6%	4	-10%[15.4 µM]	40µM*	1.4

Continued.
Under each structure: Menin-MLL FL inh	ClpP mod	TRPML1 inh	gsp ag	gsp antagonist	TRPML1 ag
COc1ccc(-c2nnc(SCC(=O)Nc3c(Cl)cc(Cl)cc3C(=O)O)o2)cc1
→ .	.	-2	8%	0%	0.8
O=C(c1ccco1)N1CCN(C(=O)C(Cc2ccccc2)NS(=O)(=O)c2cccs2)CC1 (configuration not stated)
→ -1.2	-6.6%	-12	4%	-6%	-0.1
Cc1ccc(C(C)C)c(OCc2nn(CC(=O)c3ccc(Cl)cc3)c3[n+]2CCCCC3)c1
→ 0.2	.	12	10%[15.4 µM]	5%	0.9
Cc1ccc(OCC(=O)Nc2ccc(C(N)=O)cc2)cc1
→ 2.6	-8.2%	1	0%[15.4 µM]	10%	-1.0
O=C(CCc1ccccc1)N[C@@H]1c2ccccc2CC[C@@H]1OCc1ccccc1
→ .	1.0%	54	.	1%	5.0
O=C(O)CSc1nc2ccccc2nc1Cc1ccccc1F
→ -12	.	24	7.1µM*	10%	0.9
O=C1NC(=S)SC1=Cc1ccc(F)cc1
→ .	-2.1%	-3	-2%	-8%	-0.3
CCOc1ccccc1C(=O)Nc1nnc(COC)s1
→ 1.4	-16%&-19%	-20&11	0%	17%	-0.6&-0.5
CC(=O)c1ccc(-c2ccc(C(=O)Nc3nc(C)c(C(C)=O)s3)o2)cc1
→ .	-5.8%	0	-3%	0%	-0.3
CC1(C)Oc2ccc3ccc(=O)oc3c2C[C@H]1O[C@@H]1O[C@H](CO)[C@@H](O)[C@H](O)[C@H]1O
→ .	4.8%	3	.	7%	-0.7
Fc1ccccc1Nc1ncnc2c1nnn2Cc1ccccc1
→ -1.9	-1.7%	12	?	-17%	1.7
Cc1occc1C(=O)/C(C#N)=C/c1ccc(O)c(Br)c1
→ ?	.	9	-3%[15.4 µM]	3%	2.3
O=C(CCCn1c(SCC(=O)Nc2ccccc2Cl)nc2ccccc2c1=O)NCC1CCCO1 (configuration not stated)
→ .	-3.5%	-7	?	-10%	0.3
CC(=O)c1ccc(N2CCN(C(=O)CCCc3nc4ccccc4s3)CC2)cc1
→ 3.8	-16%	10	-5%	32µM*	0.9
CCN(CC)c1ccc(/C=N/NC(=O)c2ccco2)c(O)c1
→ ?	-14%	.	14%	-14%	.
Cc1cc(C)cc(-n2c(SCC(=O)NCc3ccco3)nc3ccccc3c2=O)c1
→ 2.5	1.5%	12	31%	-1%	1.5
CC(=O)Oc1ccc2nc(-c3ccco3)oc(=O)c2c1
→ -2.3	.	-13	-14%	4%	-0.2
CCC(CCNC(=O)c1ccccc1)(CCNC(=O)c1ccccc1)[N+](=O)[O-]
→ .	0.9%	15	-1%	-9%	2.9
Cc1ccc(CNC(=O)COC(=O)c2ccc(Br)cc2)cc1
→ 8.3	0.6%	14	-33%[inhibitor]	13%	-0.4
O=C(CNS(=O)(=O)c1ccc(Br)cc1Cl)OCC(=O)N1CCCC1=O
→ .	-1.8%	5	?	-19%	2.1
CNc1nc(-c2ccccc2)cc(C)c1S(C)(=O)=O
→ -4.4	3.6%	-15	-24%	-12%	0.6
COc1ccc(N2CCN(C(c3cccs3)C(C)NC(=O)C(=O)N3CCOCC3)CC2)cc1 (configuration not stated)
→ .	-6.0%	-7	24%	-6%	-0.5
O=C(CNCc1cccs1)Nc1ccc(N2CCCCCC2)cc1
→ -2.3	-0.1%	47	-76%[inhibitor]	-6%	-0.2
COc1ccc(C)cc1NC(=O)C(=O)NCC(c1cccnc1)N1CCN(c2ccccc2F)CC1 (configuration not stated)
→ .	-1.0%	-28	.	.	0.7
CCCCN1C(C(=O)c2ccccc2)=C(OC(=O)CC)c2ccccc2S1(=O)=O
→ .	-2.2%	-12	.	.	2.9
Cc1nnc(SCC2=C(C(=O)O)N3C(=O)C(NC(=O)Cn4nc(C(F)F)cc4C)C3SC2)s1 (configuration not stated)
→ -3.3	0.6%	-10	-4%	3%	0.7
CC(=O)Nc1ccc(C(=O)OCC(=O)N2CC3(C)CC2CC(C)(C)C3)cc1 (configuration not stated)
→ .	.	-12	-25%	-2%	2.9
COC(=O)c1ccccc1NC(=O)CCS(=O)(=O)c1nc(-c2ccc3c(c2)OCO3)cc(C(F)(F)F)n1
→ .	?	11	.	.	0.2
CC(C)OCCCNC(=O)CCSc1ccc(Cl)cc1
→ 0.2	-1.1%	-4	-4%	6%	1.0
CC1(C)OC1COc1c2ccoc2cc2oc(=O)ccc12 (configuration not stated)
→ 2.3	-8.8%	42	-17%	-19%	-0.1

Record cards, as listed above. Values in the order: Menin-MLL FL inh, ClpP mod, TRPML1 inh, gsp ag, gsp antagonist, TRPML1 ag
CCN(CC)c1ccc(/C=N/NC(=O)c2ccco2)c(O)c1 in the list: ?, -14%, ., 14%, -14%, .
Cc1ccc(CNC(=O)COC(=O)c2ccc(Br)cc2)cc1 in the list: 8.3, 0.6%, 14, -33%[inhibitor], 13%, -0.4
Cc1ccc(C(C)C)c(OCc2nn(CC(=O)c3ccc(Cl)cc3)c3[n+]2CCCCC3)c1 in the list: 0.2, ., 12, 10%[15.4 µM], 5%, 0.9
O=C(CNCc1cccs1)Nc1ccc(N2CCCCCC2)cc1 in the list: -2.3, -0.1%, 47, -76%[inhibitor], -6%, -0.2

Continued.
Under each structure: Menin-MLL FL inh	ClpP mod	TRPML1 inh	gsp ag	gsp antagonist	TRPML1 ag
CC1CN(C(=O)C2CCCC2)C(C)CN1C(=O)C1CCCC1 (configuration not stated)
→ 1.5	-1.4%	6	-11%	9%	-0.1
CCN1C(=O)/C(=C/c2cn(C)nc2C)SC1=S
→ 6.3	-3.2%	-8	-18%	5%	2.5
O=C(COc1ccc2c(C(F)(F)F)cc(=O)oc2c1)Nc1ccc2c(c1)OCCO2
→ 9.3	-0.3%	-10	-12%	1%	0.8
CC(=O)NCC(=O)OCC(=O)c1ccc2ccccc2c1
→ -0.6	28µM*	3	?	-4%	-0.4
O=C(NCc1cccnc1)Nc1cccc(C(F)(F)F)c1
→ 0.3	-1.5%	-14	35%	-1%	0.6
